Polio RdRp inh: inhibitors of poliovirus RNA polymerase binding and polymerization | AID 588519 | % elongation, % (compound at 16.7 µg/mL) | actives 0.66% (n = 150,000) | poliovirus polymerase elongation, fluorescence polarization; stronger effect = lower value | P03300; in the data active = % elongation below about 90%; also: some results filed as inactive read as strong as hits
Target sequence (P03300 1749-2209 limits assumed): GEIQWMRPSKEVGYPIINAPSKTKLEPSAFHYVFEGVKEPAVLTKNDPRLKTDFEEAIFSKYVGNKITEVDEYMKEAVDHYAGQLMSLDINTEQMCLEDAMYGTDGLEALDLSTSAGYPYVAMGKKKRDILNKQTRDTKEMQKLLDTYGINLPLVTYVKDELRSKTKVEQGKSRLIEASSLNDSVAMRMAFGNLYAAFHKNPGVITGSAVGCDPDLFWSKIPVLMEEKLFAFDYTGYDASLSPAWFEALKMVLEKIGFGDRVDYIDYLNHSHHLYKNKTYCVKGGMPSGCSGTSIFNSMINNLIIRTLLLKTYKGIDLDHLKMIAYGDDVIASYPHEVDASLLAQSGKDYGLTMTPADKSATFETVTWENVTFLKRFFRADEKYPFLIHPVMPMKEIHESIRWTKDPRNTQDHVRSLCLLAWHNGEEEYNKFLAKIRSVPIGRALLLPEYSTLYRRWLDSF
Polio RdRp inh intensity: second read-out of Polio RdRp inh, no call of its own (marks repeat the call); % elongation; measured here: total intensity read-out; formula for this scale not given here;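 total fluorescence in place of polarization; lower means less elongation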
Starred values were filed as active, the others as inactive. These rows are one share of the data; the hit share may differ from the screen's.

Screens in order: Polio RdRp inh, Polio RdRp inh intensity
- Cc1ccc(-c2nnc(NC(=O)c3ccc4c(c3)OCCO4)o2)c(C)c1
  107, 113
- CCCCN(Cc1ccco1)C(=O)c1cc2c(s1)-c1c(C)cccc1OC2
  104, 111
- CCc1cccc(NC(=O)Cn2c(C(=O)OC)cc3sc(Cl)cc32)c1
  103, 112
- CC(Oc1ccc(Br)cc1)C(=O)Nc1ncn[nH]1 (stereo not given)
  108, 107
- CCCNC(=O)c1c(C)nn(-c2cccc(C)c2)c1-n1cccc1
  108, 113
- Cc1ccc(N(C)C(=O)C2CCN(S(=O)(=O)c3cn(C)cn3)CC2)cc1
  99, 107
- O=C(Nc1ccc(F)cc1C(F)(F)F)C1CCN(c2ncccn2)CC1
  110, 114
- CCOC(=O)c1cc(-c2ccc(C)cc2)n(CC(=O)Nc2cccc(C(C)=O)c2)c1C
  106, 103
- CCOC(=O)c1[nH]c(C)c(C(=O)NCc2cccc(OC)c2)c1C
  108, 109
- O=C1c2oc3ccccc3c(=O)c2C(c2cccc(Cl)c2)N1c1ccccn1 (stereo not given)
  104, 103
- CCOc1ccc(CCNc2ncnc3onc(C)c23)cc1OCC
  114, 111
- COc1cc(Cl)c(NC(=O)CCc2nc3cccnc3n2-c2ccccc2)c(OC)c1
  107, 112
- Cc1ccc(NC(=O)Cn2ncc3c4ccccc4n(Cc4ccccc4)c3c2=O)cc1Cl
  111, 118
- Cc1ccc(NC(=O)Cn2c(=O)n(Cc3ccc4c(c3)OCO4)c(=O)c3ccccc32)c(C)c1
  111, 113
- Cc1ccc(N2CCN(c3nc4c(S(=O)(=O)c5ccc(C)c(C)c5)nnn4c4ccccc34)CC2)c(C)c1
  104, 100

Screens in order: Polio RdRp inh, Polio RdRp inh intensity
- Cc1ccc(C)c(NC(=O)c2nnn(CC(=O)Nc3cccc(C)c3C)c2N)c1
  104, 112
- Cc1c(CC(=O)NCc2ccc(F)cc2)c(=O)oc2cc(O)c(Cl)cc12
  110, 113
- CCc1ccc(CNC(=O)c2ccc3nc(SCc4ccc(F)cc4)n(C)c3c2)cc1
  115, 110
- Cc1ccccc1OCC(=O)Nc1ccc(-c2nc3ncccc3o2)cc1
  110, 114
- COc1ccc(NC(=O)Cn2c(=O)n(Cc3ccco3)c(=O)c3sc4ccccc4c32)cc1OC
  109, 111
- O=C(NCc1ccc(Cl)cc1)c1cc2ccccc2o1
  105, 107
- COc1ccc(NC(=O)C2CCCN(S(=O)(=O)c3c(C)[nH]c(=O)[nH]c3=O)C2)cc1Cl (stereo not given)
  102, 106
- Cc1c(Cl)cccc1NC(=O)CSc1nc(=O)n(Cc2ccco2)c2c1CCC2
  103, 100
- COc1ccc(-n2c(=O)c3ccc(C(=O)NCc4ccc(C)cc4)cc3n(Cc3ccc(Cl)cc3)c2=O)cc1
  104, 104
- O=C(Nc1ccc(F)cc1F)c1ccc(CN2CC(=O)N3CCCCC3C2=O)cc1 (stereo not given)
  110, 112
- COc1ccc(NC(=O)c2sc3nc4c(cc3c2N)CN(Cc2ccccc2)CC4)cc1
  104, 108
- COc1cccc(C(=O)Nc2ccc(-c3cc(C(F)(F)F)nn3-c3ccccc3)cc2)c1
  107, 111
- COc1cccc(CNC(=O)C2CCCN(c3nnc(-n4c(C)ccc4C)s3)C2)c1 (stereo not given)
  104, 108
- CCOC(=O)c1ccccc1NC(=O)CN1CCCN(Cc2cc(C)ccc2C)S1(=O)=O
  111, 95
- CCCCOc1ccccc1CC1C(=O)Nc2ccc(Br)cc21 (stereo not given)
  104, 94

A portion from the list above, for reference:
Screens in order: Polio RdRp inh, Polio RdRp inh intensity
- Cc1ccc(C)c(NC(=O)c2nnn(CC(=O)Nc3cccc(C)c3C)c2N)c1
  104, 112
- Cc1c(CC(=O)NCc2ccc(F)cc2)c(=O)oc2cc(O)c(Cl)cc12
  110, 113

Among those listed so far, 4 have a thiophene ring, fused or not:
Screens in order: Polio RdRp inh, Polio RdRp inh intensity
- CCCCN(Cc1ccco1)C(=O)c1cc2c(s1)-c1c(C)cccc1OC2
  104, 111
- CCc1cccc(NC(=O)Cn2c(C(=O)OC)cc3sc(Cl)cc32)c1
  103, 112
- COc1ccc(NC(=O)Cn2c(=O)n(Cc3ccco3)c(=O)c3sc4ccccc4c32)cc1OC
  109, 111
- COc1ccc(NC(=O)c2sc3nc4c(cc3c2N)CN(Cc2ccccc2)CC4)cc1
  104, 108

Next compounds follow:
Screens in order: Polio RdRp inh, Polio RdRp inh intensity
- Cc1cccc(Cc2cnc(NC(=O)C3Cc4ccc(C)cc4C(=O)O3)s2)c1 (stereo not given)
  106, 107
- COc1cc2ccccc2cc1C(=O)Nc1cc(-c2nc3ccccc3o2)ccc1C
  100, 101
- CCCN(CCC)C(=O)Cn1c(=O)n(-c2cccc(C)c2)c(=O)c2c1c1cc(OC)ccc1n2C
  105, 105
- CC(=O)c1cccc(NC(=O)C(Cc2ccccc2)NS(=O)(=O)c2ccc(Br)s2)c1 (stereo not given)
  105, 99
- CC(C)CCNC(=O)N1CCN(S(=O)(=O)c2ccc3c(ccn3C)c2)CC1
  104, 109
- CCn1c(=O)c2sccc2n2c(CCC(=O)Nc3ccc(F)cc3)nnc12
  107, 111
- O=S(=O)(c1cccc(Cl)c1)c1nnn2c1nc(NCc1ccc3c(c1)OCO3)c1sccc12
  92, 77
- Cc1ccccc1C(=O)Nc1cccc(OCc2cc(=O)n3c4c(sc3n2)CCCC4)c1
  98, 96
- Cc1ccccc1NC(=O)Cn1c(=O)n(Cc2ccccc2)c(=O)c2c(C)c(C)sc21
  108, 106
- Cc1nn(-c2ccc(N3CCCC3)nn2)c(C)c1CCC(=O)N1CCN(c2ccccc2)CC1
  103, 106
- COc1ccccc1NC(=O)c1c(NC(=O)COc2ccccc2)sc2c1CCCCC2
  106, 112
- Cc1ccc(-c2noc(-c3nnn(CC(=O)Nc4ccc(C)c(Cl)c4)c3N)n2)cc1
  102, 109
- COc1ccc2oc(=O)c(C(=O)N3CCN(c4ccc(C)cc4)CC3)cc2c1
  104, 110
- COc1ccc(CCNC(=O)Cn2cc(S(=O)(=O)Cc3ccc(F)cc3)c3ccccc32)cc1OC
  111, 113
- O=C(Nc1cccc(C(F)(F)F)c1)N1CC2CCCN2c2ccccc21 (stereo not given)
  104, 110

Among those listed so far, 3 have an NH in an aromatic ring.
Screens in order: Polio RdRp inh, Polio RdRp inh intensity
- CC(Oc1ccc(Br)cc1)C(=O)Nc1ncn[nH]1 (stereo not given)
  108, 107
- CCOC(=O)c1[nH]c(C)c(C(=O)NCc2cccc(OC)c2)c1C
  108, 109
- COc1ccc(NC(=O)C2CCCN(S(=O)(=O)c3c(C)[nH]c(=O)[nH]c3=O)C2)cc1Cl (stereo not given)
  102, 106

Next section.
Screens in order: Polio RdRp inh, Polio RdRp inh intensity
- COc1ccc(CCNC(=O)C2(c3cccs3)CCOCC2)cc1OC
  111, 115
- Cc1nn(C)cc1CN(C)C(=O)c1cc(-c2ccccc2)nc2ccc(Br)cc12
  106, 108
- Cc1cccc(OCCSc2nc3ccccc3n2CC(=O)N2CCOCC2)c1C
  110, 117
- CCOCCc1nnc(NC(=O)C(=O)c2cc(C)n(-c3cccc(C)c3)c2C)s1
  107, 114
- CC1=C(C(=O)Nc2ccc(C)cc2C)C(c2sccc2C)n2ncnc2N1 (stereo not given)
  107, 108
- CCOC(=O)c1c(NC(=O)C(C)Sc2cn(CCNC(=O)c3ccc(OC)cc3)c3ccccc23)sc2c1CCC2 (stereo not given)
  107, 108
- CCOC(=O)c1ccc(N2C(=O)c3[nH]nc(-c4ccc(OC)cc4)c3C2c2ccccc2Cl)cc1 (stereo not given)
  113, 110
- COc1cccc(NC(=O)Cn2c(=O)n(-c3ccc(CC(=O)NCC4CCCO4)cc3)c(=O)c3ccccc32)c1 (stereo not given)
  105, 111
- COc1ccc(NC(=O)CCNS(=O)(=O)c2cccc3nsnc23)cc1OC
  105, 106
- COCCNC(=O)C1CCN(c2nc3ccccc3nc2C(F)(F)F)CC1
  111, 114
- CC1CCN(C(=O)c2cc(-c3ccc(Cl)cc3)on2)CC1
  107, 115
- Cc1ccc(-n2nc3c(=O)n(CCCC(=O)NCc4ccccc4C)nc(C)c3c2C)cc1
  120, 113
- Clc1cccc(CSc2nc(NCCc3ccccc3)c3ccccc3n2)c1
  105, 110
- O=S(=O)(NCC(c1ccco1)N1CCOCC1)c1ccc(Cl)cc1 (stereo not given)
  116, 118
- COc1cccc(C(=O)NCCc2sc(-c3cccc(C)c3)nc2C)c1
  108, 110

Screens in order: Polio RdRp inh, Polio RdRp inh intensity
- Cc1ccccc1N1CCN(S(=O)(=O)c2nnc(NC(=O)c3ccc(C(C)C)cc3)s2)CC1
  109, 114
- CCOC(=O)/C(C#N)=C/c1ccc(-c2ccc(Br)cc2)o1
  107, 107
- COc1cc(NC(=O)CC(c2ccc(C)cc2)N2Cc3ccccc3C2=O)cc(OC)c1 (stereo not given)
  110, 110
- O=C(CCCc1nc(-c2ccccc2)no1)Nc1cc(C(F)(F)F)cc(C(F)(F)F)c1
  107, 108
- CCCCCCNC(=O)CCc1c(C)nc2nc(-c3cc(OC)cc(OC)c3)nn2c1C
  105, 107
- CCSc1nc(-c2ccc(OC)cc2)nc2c1Cc1c(CO)cnc(C)c1O2
  108, 113
- COc1cn(CC(=O)Nc2ccc(C)cc2C)c(CN2CCCCC2)cc1=O
  101, 109
- CCOC(=O)c1cnc2ccc(C(=O)OC)cc2c1Nc1ccccc1CC
  104, 104
- CCS(=O)(=O)c1c(Nc2cc(C)ccc2C)sc(C(=O)c2ccccc2)c1N
  105, 106
- O=C(NCC(c1cccnc1)N1CCc2ccccc2C1)C(=O)Nc1cccc(Cl)c1 (stereo not given)
  109, 108
- Cc1cc(C)cc(NS(=O)(=O)c2ccc3[nH]cc(C(=O)N4CCCC4)c(=O)c3c2)c1
  106, 109
- Cc1cccc(C(=O)Nc2ccccc2-c2nc(-c3ccccc3)no2)c1
  102, 109
- COc1ccc(Cn2c(=O)c3oc4ccccc4c3n(Cc3cccc(C(F)(F)F)c3)c2=O)cc1
  108, 112
- Cc1nn(C(=O)COc2ccccc2)c(C)c1Sc1ccccc1
  108, 102
- Cc1nc2nc(SCc3c(F)cccc3Cl)nn2c(C)c1Cc1ccccc1
  105, 108

Screens in order: Polio RdRp inh, Polio RdRp inh intensity
- COc1cc(CN(C(=O)c2ccccc2[N+](=O)[O-])c2ccccn2)cc(OC)c1OC
  110, 112
- Cc1cccc(N(CC(O)Cn2c3ccccc3c3ccccc32)S(=O)(=O)c2ccc(F)cc2)c1 (stereo not given)
  105, 107
- O=C(CCc1nc(-c2cccs2)no1)Nc1cccc([N+](=O)[O-])c1
  104, 105
- Cc1ccc2nc(N3CCN(C(=O)C4CC4)CC3)sc2c1
  105, 101
- CCc1ccc(NC(=O)CSc2nc(-c3ccccc3Cl)nc3c2Cc2c(CO)cnc(C)c2O3)cc1
  108, 107
- CCOc1ccccc1NC(=O)c1ccc(F)c(S(=O)(=O)NCc2ccc3c(c2)OCO3)c1
  112, 110
- Cc1ccc(C(c2sc3nc(-c4ccco4)nn3c2O)N2CCCCC2)cc1 (stereo not given)
  106, 111
- CCOc1ccc(S(=O)(=O)Nc2cccc(-c3ccc(OCC)nn3)c2)cc1
  96, 96
- CC1=C(C(=O)OC2CCCCCC2)C(c2ccccc2Cl)CC(=O)N1 (stereo not given)
  108, 109
- O=C(c1ccc2c(c1)OCCO2)N(Cc1cccnc1)c1nc2c(F)cccc2s1
  109, 112
- Cc1c(C(=O)Nc2cccc(-c3nc4ccccc4s3)c2)oc2ccc(F)cc12
  100, 104
- CCOc1ccc(CCNC(=O)c2cccc(-n3c(C)nc4cccnc43)c2C)cc1
  111, 110
- Cc1nc2c(c(SCC(=O)Nc3ccccc3C(F)(F)F)n1)CCC2
  107, 111
- Cc1cc(C)n(-c2nc3cc(Cl)ccc3nc2Nc2ccc(C)c(F)c2)n1
  103, 106
- COc1cccc(C2C(C(=O)Nc3ccccc3)=C(C)Nc3nc(-c4ccccc4)nn32)c1OC (stereo not given)
  107, 102

Screens in order: Polio RdRp inh, Polio RdRp inh intensity
- O=C(NCC(c1ccc2c(c1)OCO2)N1CCN(c2ccccc2)CC1)C(=O)Nc1ccccc1 (stereo not given)
  108, 112
- CCCn1cc(S(=O)(=O)c2cc(C)ccc2C)c(=O)c2cc(F)c(N3CCOCC3)cc21
  99, 96
- Cc1nn(C)c2c1c(C(F)(F)F)cc(=O)n2Cc1ccc(Br)cc1F
  108, 103
- Cc1ccc(N2CCN(S(=O)(=O)c3nnc(NC(=O)c4ccc(C(C)C)cc4)s3)CC2)cc1
  113, 116
- CCc1ccc(CNC(=O)COc2cc(=O)n(CC)c3ccccc23)cc1
  101, 100
- COC(=O)c1ccc(NC(=O)CCCC(=O)OCC(=O)c2ccc(Cl)cc2)cc1
  106, 113
- O=C(CSc1nc2ccncc2[nH]1)Nc1ccccc1C(F)(F)F
  105, 104
- CC1CCN(S(=O)(=O)c2cc(C(=O)N3CCN(c4ccccc4F)CC3)n(C)c2)CC1
  108, 109
- Cc1ccc(NC(=O)Cn2c(SCc3ccc(F)cc3)nc3cccnc32)cc1F
  106, 111
- COC(=O)c1ccccc1NC(=O)CSc1cc(-c2ccccc2)nc(C)n1
  110, 112
- Cc1ccc(-c2ccc(=O)n(CC(=O)NCc3ccc(F)cc3)n2)cc1
  113, 113
- O=C(c1cnc(N2CCCCC2)c2ccccc12)N1CCN(c2ccccc2F)CC1
  105, 110
- O=C(Nc1nnc(S(=O)(=O)N2CCCC2)s1)c1ccc(F)cc1
  116, 110
- CCOc1ccc(S(=O)(=O)N2CCC(n3c(C)nc4cccnc43)CC2)cc1
  103, 105

In the list so far, these contain a nitro group on carbon.
Screens in order: Polio RdRp inh, Polio RdRp inh intensity
- COc1cc(CN(C(=O)c2ccccc2[N+](=O)[O-])c2ccccn2)cc(OC)c1OC
  110, 112
- O=C(CCc1nc(-c2cccs2)no1)Nc1cccc([N+](=O)[O-])c1
  104, 105
